# Menin-MLL FL inh – qHTS Assay for Inhibitors Targeting the Menin-MLL Interaction in MLL Related Leukemias: Competition With Fluorescein Labeled MLL-derived Peptide | Fluorescence polarization, fluorescein-MLL peptide displacement from menin | FP activity change, % at 61.4 µM | 290,000 tested, under 10 active; inconclusive = falling polarisation curve, or a change in total fluorescence; inactive = total fluorescence flat and polarisation flat or rising; no compound was filed as active; the % refers to the polarisation; negative = inhibition;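 further: % of control where 0% means no effect; inhibitors lower the polarisation; unlabelled MLL peptide was the positive control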
# TRPML1 ag – qHTS for Agonists of the Human Mucolipin Transient Receptor Potential 1 (TRPML1); TRPML1-expressing cells, Ca2+ dye fluorescence, FDSS; host cell line not named in the record; reference of the full effect not given here; activation, % (test concentration not listed); hit rate 0.12% among 410,000; AID 624414, 2012; in the data active = activation above about 50%; inconclusive = about 30% to 50%; inactive = below about 30%; further: 0% is about no effect; the text of the record puts the active cut at 80%
# Target sequence (Q9GZU1 whole entry, looked up): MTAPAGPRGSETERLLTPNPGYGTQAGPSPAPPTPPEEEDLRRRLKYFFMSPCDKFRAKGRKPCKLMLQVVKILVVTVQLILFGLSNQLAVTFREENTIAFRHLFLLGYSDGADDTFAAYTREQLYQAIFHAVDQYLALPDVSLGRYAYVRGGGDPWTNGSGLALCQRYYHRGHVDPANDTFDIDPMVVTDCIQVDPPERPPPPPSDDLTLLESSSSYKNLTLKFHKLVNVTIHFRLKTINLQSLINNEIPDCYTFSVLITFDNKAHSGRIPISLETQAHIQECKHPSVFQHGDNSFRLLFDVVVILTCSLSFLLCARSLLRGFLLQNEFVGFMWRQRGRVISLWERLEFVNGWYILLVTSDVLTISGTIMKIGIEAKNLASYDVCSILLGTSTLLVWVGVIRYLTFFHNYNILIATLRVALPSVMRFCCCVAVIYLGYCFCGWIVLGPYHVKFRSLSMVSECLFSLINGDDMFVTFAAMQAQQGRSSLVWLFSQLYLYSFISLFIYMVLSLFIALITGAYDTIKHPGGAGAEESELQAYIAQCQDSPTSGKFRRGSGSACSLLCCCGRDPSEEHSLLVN
#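 Calcium fluorescence on an FDSS kinetic reader gave the read-out. Tet-induced TRPML1-DL cells were plated overnight, dye-loaded (Ca8 with quencher, 45-90 min, room temperature, dark), then read 110 s after compound addition, and again 110 s after 4uM final 54-4 (EC80).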
# TRPML1 blocker – qHTS for Inhibitors of the Human Mucolipin Transient Receptor Potential 1 (TRPML1); Mucolipin-1 (Homo sapiens), Q9GZU1; TRPML1-inducible cells, Ca2+ dye fluorescence, FDSS; hits give low values; inhibition of EC80 agonist-evoked calcium signal; activity change, negative = inhibition, % (concentration not given with the values); hit rate 0.02% among 390,000; AID 624415, 2012; in the data active means activity change below about -50%; inconclusive means about -30% to -50%; inactive means above about -30%;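 further: stimulus is agonist 54-4 at its EC80 concentration; on the % scale 0 is the no-effect control and ±100 the full control effect; compound concentration not given in the record; the text of the record puts the active cut at -80%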
#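 Calcium fluorescence in TRPML1-DL cells induced overnight with Tet: a 110 s read after compound pin addition, then a 110 s antagonist read after challenge with 54-4 at 4 uM final (EC80).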
# ClpP mod – qHTS Assay for Activators of ClpP. ATP-dependent Clp protease proteolytic subunit (Bacillus subtilis (strain 168)), P80244. purified B. subtilis ClpP, FRET peptide cleavage, 20 min. Potency, µM (highest dose often 57.5 µM), without a hit: at the highest dose activity change, negative = active. hit rate 1.9% among 340,000. AID 651965, 2013; active = well fitted falling curve with a large enough effect; inconclusive = small, poorly fitted or top-dose-only effect; inactive = no such curve, though single readings can be large or run the other way; further: potency means the concentration at half of the fitted maximal effect; the source files actives as falling curves though it sought activators and does not explain the sign; nearly all actives have a fitted effect of over 65% in size; many hits overshoot -100%
# Target sequence (P80244 whole entry, looked up): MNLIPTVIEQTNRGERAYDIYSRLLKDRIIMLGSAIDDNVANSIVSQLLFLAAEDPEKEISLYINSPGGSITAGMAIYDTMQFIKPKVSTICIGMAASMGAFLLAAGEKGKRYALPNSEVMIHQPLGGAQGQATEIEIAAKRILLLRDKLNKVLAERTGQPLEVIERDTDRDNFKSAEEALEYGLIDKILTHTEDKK
#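 Purified B. subtilis ClpP, 10 microg/mL final in Tris/HCl pH8 with KCl, BSA, glycerol and Tween-20, cleaved an Abz/nitrotyrosine-quenched decapeptide. Fluorescence (ex 320, em 430) was read at 0 and 20 min at room temperature. Delta was normalized to 5.8 microM ADEP and DMSO/no-enzyme controls.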
# gsp antagonist – qHTS for Antagonists of gsp, the Etiologic Mutation Responsible for Fibrous Dysplasia/McCune-Albright Syndrome: qHTS | hit rate 0.4% among 340,000 | gsp-mutant cells, cAMP HTRF, 30 min; control for the full effect not named in the record | AID 624288, 2012 | Potency, µM (titrated, usually from 76.9 µM), for inactives: top-dose activity change, negative = inhibition, most hits filed as inhibitors; active = falling curve of any shape with a large fitted effect; inconclusive = falling curve, mostly with a smaller effect; inactive = flat or rising curve; cell line not stated here;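 further: intracellular cAMP measured with PDE inhibitor Ro 20-1724 present during compound exposure; potency means the concentration at half of the fitted maximal effect; on the % scale 0 is the no-effect control and ±100 the full control effect; nearly all actives have a fitted effect of over 65% in size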
#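 HTRF cAMP measurement after 30 min RT detection following 30 min, 37C compound treatment alongside […] (added as 300 uM solution) in G418-selected cells seeded at 2000/well and grown 16–24 h.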
# gsp agonist – qHTS for Agonist of gsp, the Etiologic Mutation Responsible for Fibrous Dysplasia/McCune-Albright Syndrome: qHTS. gsp mutant cells, cAMP HTRF, 30 min; control for the full effect not named in the record. Potency, µM (series often up to 76.9 µM), for the others: at the highest dose activation (cAMP increase), hits mostly activators. hit rate 0.13% among 340,000; active = well fitted activation curve with a large enough effect; inconclusive = small, poorly fitted or top-dose-only effect, or another doubt; inactive = no such curve, though single readings can be large or run the other way; cell line not stated here;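 further: phosphodiesterase inhibitor Ro 20-1724 added with compounds to block cAMP breakdown; potency means the concentration at half of the fitted maximal effect; nearly all actives have a fitted effect of over 60% in size; about a fifth of the inactives were tested at one dose only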
#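 Cells in DMEM/10% FBS with G418 were pretreated with compounds in DMSO plus […] (300 uM stock) for 30 min at 37C. cAMP was measured by HTRF (cAMP-d2 plus anti-cAMP antibody-K) after 30 min at room temperature.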
# Active calls of the source: *; ? = inconclusive; . = no result given; & = joins results of further samples; [ ] = dose if it differs, or a comment.
SMILES	gsp agonist	TRPML1 blocker	gsp antagonist	TRPML1 ag	ClpP mod	Menin-MLL FL inh
CCCCOC(=O)C1[C@H]2C(=O)N(CCc3ccccc3)C[C@]23C=C[C@H]1O3 (stereo partly drawn)	3%	-4	-2%	0.1	-2.1%	2.5
CN1CCN(CC(=O)Nc2cccc(S(=O)(=O)N(C)c3ccccc3)c2)CC1	?	1	8%	0.0	-1.8%	.
CC(C)C(OC(=O)C1CCCO1)C(=O)NC1CCCC1 (stereo not drawn)	9%	13	-1%	-0.8	0.8%	4.8
CCN(CC)CCN(C)C(=O)c1ccc(OC2CCN(C(=O)C3CC3)CC2)cc1	-14%	25	6%	0.5	.	2.6
CCOC(=O)c1cnc2c(C)cc(C)cc2c1Nc1ccc(OCc2ccccc2)cc1	.	-13	.	1.1	-3.2%	.
CCOC(=O)Cn1cnc2onc(-c3ccc(F)cc3)c2c1=O	.	-4	.	0.5	0.0%	.
O=C(OCn1ncc(Br)c(Br)c1=O)c1ccc(F)cc1	29%[15.4 µM]	10	17%	0.2	3.6%	5.1
CN(C)CCNC(=O)C(=O)NCC1OCCN1S(=O)(=O)c1ccc([N+](=O)[O-])cc1 (stereo not drawn)	-33%	-3	6%	-0.4	-0.6%	0.2
O=C1C(C=Nc2ccc(F)cc2)=C(O)c2ccccc21	3%[15.4 µM]	24	.	0.0	.	-13
CCc1nnc(NC(=O)CSc2nnc(C)n2-c2ccc(C)cc2)s1	6%	17	-6%	-1.6	-8.7%	-1.8
CCc1cc2c(-c3ccccc3)cc(=O)oc2cc1OC(C)C(=O)O (stereo not drawn)	3%	.	-4%	.	-28%	-1.0
COc1ccc(OC)c(/C=N/NC(=O)CCc2c(C)n[nH]c2C)c1	14%	-19	10%	2.9	4.0%	1.9
Cc1cc(C(=O)OCC(=O)Nc2ccccc2C(F)(F)F)on1	2%[15.4 µM]	13	-12%	0.0	-2.2%	.
COc1ccc(-n2nc3c(N4CCC(C(=O)NCc5cccc(C)c5)CC4)nnc(C)c3c2C)cc1	16%	?	-1%	-0.4	-1.4%	.
Cc1ccc(/C=C(/C#N)C(=O)NC(=O)Oc2ccccc2)cc1	29%	-4	3%	0.6	0.3%	1.4
CC(=O)c1cccc(NC(=O)C2CCN(c3nnc(-n4cccc4)s3)CC2)c1	.	-7	.	2.4	-1.6%	.
Cn1c2c(c(=O)n3ncnc13)CCCC2	31%[15.4 µM]	15	15%	1.0	22µM*	1.2
CC1=C(c2ccc(F)cc2)S(=O)(=O)N=C1N1CCC(C(=O)NCCc2ccccc2)CC1	.	10	.	3.4	0.8%	.
COc1ccc(C2CC(c3cccs3)=NN2C(=O)COC(=O)c2cncc(Br)c2)cc1OC (stereo not drawn)	-2%[15.4 µM]	20	-10%	0.6	.	14
CC1CCCCN1CCNC(=O)c1ccc2c(c1)N(Cc1ccccc1)C(=O)c1ccccc1S2(=O)=O (stereo not drawn)	32%	-4	9%	0.5	0.6%	.

# (continued)
SMILES	gsp agonist	TRPML1 blocker	gsp antagonist	TRPML1 ag	ClpP mod	Menin-MLL FL inh
O=C(COC(=O)c1ccc(S(=O)(=O)N2CCCC2)cc1)Nc1ccc(F)cc1F	9%	-16	3%	0.4	.	-6.1
CN(C)C(CNC(=O)c1cc(S(=O)(=O)N(C)c2ccccc2)ccc1Cl)c1cccs1 (stereo not drawn)	0%[15.4 µM]	7	-1%	-1.3	-7.1%	1.2
Cc1cc(/C=N/NC(=O)c2cccc([N+](=O)[O-])c2)c(C)n1-c1ccc(Cl)cc1Cl	-2%	6	5%	1.0	-4.4%	0.0
COc1ccc(-c2cn3nc(N4CCC(C(=O)Nc5cccc(Cl)c5)CC4)sc3n2)cc1	.	-12	.	-0.3	-3.5%	.
COc1ccc(-c2csc3nc(-c4ccccc4)oc(=O)c23)cc1OC	?	-7&0	-10%	-0.9&-0.5	-0.9%&-12%	3.5
O=C(NCc1ccco1)c1ccc2c(c1)N(Cc1ccccc1)C(=O)c1ccccc1S2(=O)=O	.	-5	.	0.6	0.3%	.
CC(=O)N1CCc2cc(CNC(=O)Nc3ccc(Br)c(C)c3)ccc21	.	5	.	-0.3	0.8%	.
COc1ccc(-n2c(=S)[nH]c3cc(C(=O)Nc4cccc(C)c4)ccc3c2=O)cc1	10%[15.4 µM]	10	-1%	0.5	-1.7%	2.3
O=C(NCCCN1CCCC1=O)c1cccs1	-45%[inhibitor]	12	7%	0.4	0.5%	-1.9
CCCN(CCC)S(=O)(=O)c1ccc(C(=O)Nc2nnc(COC)o2)cc1	?	4	-4%	0.1	1.1%	-3.1
Cc1ccc(S(=O)(=O)N2CCN(c3ncccn3)CC2)cc1C	6%	19	2%	-0.4	.	.
Cc1ccc(NC(=O)NCCCN2CCCC2=O)cc1	-33%[inhibitor]	-4	7%	0.6	-0.8%	-0.1
CCCC(Oc1ccc(Br)cc1)c1nc2c3cc(OC)c(OC)cc3nc(=S)n2[nH]1 (stereo not drawn)	10%	-9	-14%	-0.5	-1.9%	0.0
CCn1c(CNC(=O)c2ccccc2F)cc2cc(C)ccc21	5%[15.4 µM]	21	-5%	1.6	-1.5%	0.0
CCOC(=O)Oc1ccc(/C=C2\N=C(C)OC2=O)cc1	-28%[15.4 µM]	2	-34%	-1.5	0.6%	3.1
O=C(NCc1ccc2c(c1)OCO2)C1CCC(CNc2c(N3CCCCC3)c(=O)c2=O)CC1 (stereo not drawn)	2%	-2	-4%	-0.9	0.6%	0.7
O=C(Nc1ccc(F)cc1)Nc1ccc(NC(=O)c2ccccc2O)cc1	36%[15.4 µM]	4	-2%	-0.2	-4.9%	0.0
Cc1ccccc1N(CC(=O)NCc1ccc2c(c1)OCO2)C(=O)C1CSC(=O)C1 (stereo not drawn)	2%[15.4 µM]	-2	0%	-1.2	0.2%	0.3
CCOC(=O)Cn1nc(C)n(-c2ccc(C(C)C)cc2)c1=O	-92%[inhibitor]	-3	-4%	-0.1	-2.1%	6.8
COCCN1C=C(C(=O)OC)C(c2ccc3c(c2)OCO3)C(C(=O)OC)=C1	?	7	0%	0.2	?	1.4

# Going on with the list:
SMILES	gsp agonist	TRPML1 blocker	gsp antagonist	TRPML1 ag	ClpP mod	Menin-MLL FL inh
CCN(c1ccccc1)c1cc2ccccc2c(=O)[nH]1	-11%[15.4 µM]	0	-12%	0.1	.	11
CCCc1nnc(SCC(=O)Nc2ccc(C(=O)OCC)cc2)o1	-23%	-28	1%	0.3	.	-1.5
COC(=O)CN1C(=O)[C@H]2[C@@H](c3ccc(C)o3)N3C(=O)CN(Cc4ccccc4)C(=O)[C@@]3(C)[C@H]2C1=O	-16%	21	12%	0.1	-2.1%	0.3
Cc1nc(SCc2ccccc2)n[nH]1	-1%	2	11%	-0.9	0.2%	0.4
O=C(CSc1nnc(-c2ccc(O)cc2)o1)Nc1cccc(O)c1	16%	19	-2%	1.2	.	-0.3
CC(C)NC(=O)NC(=O)CSc1nnc(COc2ccccc2Cl)o1	?	23	1%	0.3	1.1%	2.9
c1ccc2c(c1)OCC(c1nn3c(Cn4nnc5ccccc54)nnc3s1)O2 (stereo not drawn)	?	-4	-19%	-0.5	-2.2%	1.5
CCCSc1nnc(NC(=O)Nc2ccc(F)cc2)s1	-9%	11	-9%	-0.6	2.9%	2.7
COC(=O)c1cc(COc2ccc3c(c2)oc(=O)c2ccccc23)c(C)o1	-38%[inhibitor]	68	1%	0.8	?	1.4
CC1=NN(c2ccc(C)c(C)c2)C(=O)C1C(c1cccc(O)c1)C1C(=O)N(c2ccc(C)c(C)c2)N=C1C (stereo not drawn)	-18%	41	8%	1.9	2.3%	5.3
c1ccc2c(CCNc3ncnc4nc[nH]c34)c[nH]c2c1	?	28	-8%	-0.7	-1.0%	0.5
N#Cc1ccc(Oc2nc(C(N)=O)cc(-c3ccccc3)n2)cc1	-1%	6	2%	-1.5	-27%	6.4
Oc1[nH]c2ccccc2c1C1=NCCCCC1	-1%	-7	-1%	-0.3	.	2.7
CN(C(=O)c1cccc(NC(=O)Cc2cccc(NC(=O)C3CCN(C(=O)C4CCCC4)CC3)c2)c1)C1CC1	.	4	-6%	-0.8	2.6%	.
CCn1cc(CN2CCCC(CNS(=O)(=O)c3cccc4cccnc34)C2)cn1 (stereo not drawn)	-67%[inhibitor]	20	6%	-0.1	-1.0%	.
CCC(=O)Nc1cc(-c2cc3ccccc3oc2=O)ccc1OC	29%	-1	-10%	-0.1	-5.4%	-0.9
CCOc1ccc(CCNC(=O)c2ccc(CS(=O)Cc3ccc(Cl)cc3)o2)cc1OCC (stereo not drawn)	-12%	2	-35%	-0.8	0.5%	.
CCCC/S(CC1CC1(Cl)Cl)=N\S(=O)(=O)c1ccc(C)cc1 (stereo not drawn)	-10%	-1	2%	0.6	-0.1%	1.6
O=C(COc1ccc(S(=O)(=O)NC2CCCCC2)cc1)NC1CCCCC1	?	-11	-7%	-0.1	-0.9%	3.9
O=[N+]([O-])c1ccccc1NCCOc1ccccc1	?	2	-2%	1.3	1.5%	0.4

# (list continues)
SMILES	gsp agonist	TRPML1 blocker	gsp antagonist	TRPML1 ag	ClpP mod	Menin-MLL FL inh
Cc1ccc(-c2cc(N)nc(-c3ccccc3)c2)cc1	-1%[15.4 µM]	5	-8%	0.1	.	-4.1
O=C(/C=C/c1cccs1)N1CCN(c2ccccc2F)CC1	15%	12	1%	1.3	2.4%	3.9
FC(F)(F)c1cc(Oc2ccccc2Cl)nc(-c2ccccn2)n1	-12%	20	7%	2.1	0.7%	1.8
Cc1ccc(-c2nc(=S)c3c(n2CCN2CCOCC2)CC(C)(C)OC3)cc1	0%	3	-3%	-0.2	?	-1.7

# Sorted by molar mass (descending): three of the compounds above.
SMILES	gsp agonist	TRPML1 blocker	gsp antagonist	TRPML1 ag	ClpP mod	Menin-MLL FL inh
FC(F)(F)c1cc(Oc2ccccc2Cl)nc(-c2ccccn2)n1	-12%	20	7%	2.1	0.7%	1.8
Cc1ccc(-c2cc(N)nc(-c3ccccc3)c2)cc1	-1%[15.4 µM]	5	-8%	0.1	.	-4.1
O=[N+]([O-])c1ccccc1NCCOc1ccccc1	?	2	-2%	1.3	1.5%	0.4

# Source: PubChem BioAssay (National Center for Advancing Translational Sciences (NCATS))
